Source: PubChem BioAssay (National Center for Advancing Translational Sciences (NCATS))
PINK1 modulator – A Quantitative High throughput Screen to Identify Chemical Modulators of PINK1 Expression; PINK1 immunofluorescence, high-content cytometry, 24 h; Potency, µM (series often up to 76.6 µM), for inactives: at the highest dose activation (PINK1 increase), hits mostly activators; hit rate 0.2% among 410,000; AID 624263, 2012; active = well fitted activation curve with a large enough effect; inconclusive = small, poorly fitted or top-dose-only effect; inactive = flat fitted curve, though single readings scatter; cell line not stated here;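 further: potency means the concentration at half of the fitted maximal effect; % of control where 0% means no effect; nearly all actives have a fitted effect of over 65% in size; a mitochondrial uncoupler was the plate control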
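Readout is PINK1 immunofluorescence, quantified alongside mitochondrial, cell and nuclear markers by laser-scanning microplate cytometry. Cells from a stable line were exposed to compound titrations (5 concentrations) for 24 hours, with CCCP controls.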
TRPML1 ag – qHTS for Agonists of the Human Mucolipin Transient Receptor Potential 1 (TRPML1). Mucolipin-1 (Homo sapiens), Q9GZU1. TRPML1-expressing cells, Ca2+ dye fluorescence, FDSS; host cell line not named in the record; reference of the full effect not given here. activation, % (concentration not given with the values). hit rate 0.12% among 410,000; in the data active = activation above about 50%; inconclusive = about 30% to 50%; inactive = below about 30%; further: 0% is about no effect; the text of the record puts the active cut at 80%
Target sequence (Q9GZU1 whole entry, looked up): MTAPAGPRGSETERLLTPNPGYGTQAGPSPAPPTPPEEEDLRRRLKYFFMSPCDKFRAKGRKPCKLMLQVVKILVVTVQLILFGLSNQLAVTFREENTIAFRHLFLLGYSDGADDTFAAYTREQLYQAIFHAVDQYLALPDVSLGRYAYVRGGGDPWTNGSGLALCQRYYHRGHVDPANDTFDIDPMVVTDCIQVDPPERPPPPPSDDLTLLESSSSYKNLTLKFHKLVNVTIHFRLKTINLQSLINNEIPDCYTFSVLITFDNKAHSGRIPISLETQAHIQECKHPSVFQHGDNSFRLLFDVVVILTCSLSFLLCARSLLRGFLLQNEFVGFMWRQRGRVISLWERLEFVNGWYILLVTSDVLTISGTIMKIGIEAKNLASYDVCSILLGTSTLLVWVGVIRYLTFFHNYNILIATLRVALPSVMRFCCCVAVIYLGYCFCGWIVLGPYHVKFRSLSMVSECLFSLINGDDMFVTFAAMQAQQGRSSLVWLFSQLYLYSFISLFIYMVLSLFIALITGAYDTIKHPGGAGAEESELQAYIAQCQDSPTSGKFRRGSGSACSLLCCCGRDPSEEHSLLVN
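Tet-induced TRPML1-DL cells, 1,500 per well, cultured overnight, were loaded with a no-wash Ca2+ dye for 45–90 min. Calcium fluorescence was recorded on the FDSS for 110 s after compound addition, before the EC80 agonist (4 uM 54-4) was added.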
* = called active by the depositor; ? = inconclusive. These rows are one share of the data (hit frequency here may not be typical).

Every second line gives: PINK1 modulator	TRPML1 ag
- COC(=O)c1cnc(N2CCN(c3ccc(OC)cc3)CC2)c2ccccc12
 : 1.6%	1.1
- CC(C)(C)OC(=O)N1CCC(c2c(C(=O)NCCc3ccsc3)cnn2-c2ccc(F)cc2F)CC1
 : 2.6%	0.3
- Cc1cc(Nc2ccccc2C)n2nc(Cc3ccc(Cl)cc3)nc2n1
 : 3.8%	0.0
- CCCCCSc1nnc2c(n1)OC(CC)Nc1ccc(Br)cc1-2 (stereo not drawn)
 : 0.2%	0.4
- Cc1ccc(Nc2nc3ccccc3nc2-n2nc(C)cc2C)c(Cl)c1
 : 1.1%	0.6
- Cc1nn(-c2ccccc2)c2sc(C(=O)Nc3ccc(Cl)cc3Cl)cc12
 : 0.5%	-0.1
- CCN1CCN(c2cc(C)c3cc(NC(=O)c4cc(Br)ccc4Cl)ccc3n2)CC1
 : 4.9%	-0.1
- COC(=O)c1c(-c2cccs2)csc1NC(=O)c1ccc(C(C)(C)C)cc1
 : 0.5%	-0.7
- CCOC(=O)c1ccccc1NS(=O)(=O)c1ccc(N2CCCCS2(=O)=O)cc1
 : 1.1%	0.1
- COc1cccc2c1Oc1ncccc1N(C(=O)Nc1ccc(F)c(Cl)c1)C2
 : 1.8%	4.1
- CCOC(=O)C1CCN(C(=O)C2COc3ccccc3C2)CC1 (stereo not drawn)
 : -1.6%	2.2
- CCCCOc1ccc(C(=O)NO)cc1
 : 1.5%	-0.8
- O=C(CCC(=O)c1ccccc1)Nc1ccc(F)c(Cl)c1
 : 0.0%	-0.4
- Cn1c(NCCN)nc2c1c(=O)n(Cc1ccccc1)c(=O)n2C
 : -1.2%	0.3
- Cc1ccc(C(c2ccccc2)c2c(C)[nH]c3ccccc23)s1 (stereo not drawn)
 : 4.1%	1.0

Next section, starting with the last four of the part before.
Every second line gives: PINK1 modulator	TRPML1 ag
- CCCCOc1ccc(C(=O)NO)cc1
 : 1.5%	-0.8
- O=C(CCC(=O)c1ccccc1)Nc1ccc(F)c(Cl)c1
 : 0.0%	-0.4
- Cn1c(NCCN)nc2c1c(=O)n(Cc1ccccc1)c(=O)n2C
 : -1.2%	0.3
- Cc1ccc(C(c2ccccc2)c2c(C)[nH]c3ccccc23)s1 (stereo not drawn)
 : 4.1%	1.0
- CCC1CN(C(=O)N2CCC(C(=O)NCc3ccccc3F)CC2)c2ccccc2O1 (stereo not drawn)
 : 0.6%	1.4
- COCCn1c(CCC(=O)Nc2cc(C)ccc2C)nc2cccnc21
 : 1.6%	1.4
- CCOc1ccccc1CNC(=O)c1ccc2c(c1)nc1n2CCC(C)C1 (stereo not drawn)
 : 0.6%	1.0
- CCn1c(C)c(C)c2cc(C(=O)NCc3cccc(C)c3)ccc21
 : -0.7%	2.5
- COc1ccc(-c2onc(C)c2C)cc1S(=O)(=O)NCc1cccs1
 : 15%	1.4
- Cc1ccccc1CN1C(=O)c2ccccc2Sc2ccc(C(=O)NCCc3ccccc3)cc21
 : 0.4%	2.6
- COc1cc(-c2nn3c(-c4cc(-c5ccccc5)n[nH]4)nnc3s2)cc(OC)c1OC
 : ?	0.6
- CCc1cccc(NC(=O)CSc2ncccc2C(=O)Oc2ccccc2Cl)c1
 : -1.3%	2.9
- COC(=O)c1ccc([C@H]2Nc3ccc(S(=O)(=O)Nc4ccc(C)cc4)cc3[C@H]3C=CC[C@H]32)cc1
 : -0.2%	-0.7
- COc1ccc2cc(CNc3ccc(C)cc3)c(=O)n(CC(=O)Nc3cccc(C(F)(F)F)c3)c2c1
 : 2.6%	2.8
- CCOc1ccc(-c2cc(OC(=O)c3ccccc3)c3c(C)oc(C)c3c(=O)c2)cc1
 : 1.1%	-0.2
- CNC(=O)C1CCN(Cc2cc3ccccc3n2Cc2ccccc2C)CC1
 : 4.0%	3.4
- COc1ccccc1-c1cc2nc(C)c(CCC(=O)NC3CCCCC3)c(C)n2n1
 : 2.9%	0.3
- COc1ccc(C(=O)Nc2nnc(S(=O)(=O)N(C)c3ccc(C)cc3)s2)cc1
 : -1.0%	4.8
- CCNC(=O)c1ccc2c(c1)sc1nc(-c3cccc(OC)c3)cn12
 : 1.5%	0.9

Later entries
Every second line gives: PINK1 modulator	TRPML1 ag
- Cc1ccc(S(=O)(=O)c2nc(-c3ccco3)oc2SCc2ccc(F)cc2)cc1
 : 1.4%	1.5
- Cc1ccc(NS(=O)(=O)c2ccc(-c3cnc(C4CC4)o3)cc2)cc1N(C)C
 : -0.7%	0.5
- COc1ccc2oc(-c3ccc(C)c(NC(=O)c4ccc(N5CCCCC5)c([N+](=O)[O-])c4)c3)nc2c1
 : 1.2%	-0.5
- COc1ccc(OC)c(S(=O)(=O)Nc2cc3c(cc2C)n(C)c(=O)c(=O)n3C)c1
 : 1.1%	-1.0
- CCC(=O)N1CCc2cc(S(=O)(=O)NCCC(=O)Nc3ccc(OC)c(OC)c3)ccc21
 : 1.3%	0.7
- CCOc1cccc(CNC(=O)c2ccc(N3CCCC3)c(NC(=O)Nc3ccccc3CC)c2)c1
 : 2.3%	-0.8
- CC1CCN(C(=O)CSc2nc(-c3ccccc3)no2)CC1
 : 0.5%	3.4
- O=C(CSc1nc2ccccc2nc1Cc1ccccc1)N1CCCc2ccccc21
 : 0.4%	1.5
- CC(C)NC(=O)COC(=O)CNC(=O)C1CCCCC1
 : 0.7%	0.3
- CCOc1ccc(CCNC(=O)c2cnc3c(-c4ccc(F)cc4)c(C)nn3c2C)cc1OCC
 : 1.1%	1.5
- C=Cc1ccc(Cn2c(C)c(CNCc3ccccc3C)c(C(=O)O)c2C)cc1
 : 0.1%	2.4
- CCn1ccc2cc(S(=O)(=O)N3CCCN(C(=O)Nc4ccc(C)cc4Cl)CC3)ccc21
 : -1.7%	2.4
- CCCOc1ccc(OC(=O)c2ccc(-c3ccc(CCC)cn3)cc2)cc1
 : 1.3%	-1.2
- COc1ccc(OC)c(CNS(=O)(=O)c2ccc3c(c2)CCCN3C(C)=O)c1
 : -1.9%	0.6
- CCOC(=O)c1sc(N2C(=O)c3oc4ccc(C)cc4c(=O)c3C2c2ccccc2F)nc1C (stereo not drawn)
 : -0.3%	-0.1

3 successive compounds from above, quoted:
Every second line gives: PINK1 modulator	TRPML1 ag
- Cc1ccc(S(=O)(=O)c2nc(-c3ccco3)oc2SCc2ccc(F)cc2)cc1
 : 1.4%	1.5
- Cc1ccc(NS(=O)(=O)c2ccc(-c3cnc(C4CC4)o3)cc2)cc1N(C)C
 : -0.7%	0.5
- COc1ccc2oc(-c3ccc(C)c(NC(=O)c4ccc(N5CCCCC5)c([N+](=O)[O-])c4)c3)nc2c1
 : 1.2%	-0.5

(list continues)
Every second line gives: PINK1 modulator	TRPML1 ag
- Cc1cc(-c2ccc(C)c(S(=O)(=O)NC3CCCCC3)c2)on1
 : -0.2%	2.0
- O=C(Nc1ccc(C(=O)N2CCN(c3ccc(F)cc3)CC2)cc1)c1nsc2ccccc12
 : 6.4%	0.6
- CCS(=O)(=O)c1ncc(Cl)c(C(=O)N2CCN(c3ccc(OC)cc3)CC2)n1
 : 14%	-0.1
- COc1ccc(NC(=O)c2oc3ccccc3c2NC(=O)c2cc(=O)c3c(C)cc(C)cc3o2)cc1
 : 6.3%	4.1
- CC1Cc2cc(S(=O)(=O)NCc3ccc(F)cc3)ccc2N1C(=O)C1CCC1 (stereo not drawn)
 : -0.8%	1.5
- Cc1ccc(NC(=O)C2CCCN(S(=O)(=O)c3cccs3)C2)c(C)c1 (stereo not drawn)
 : -1.1%	3.8
- Cc1ccccc1CN1C(=O)c2ccccc2S(=O)c2ccc(C(=O)NCc3ccc(Cl)cc3)cc21 (stereo not drawn)
 : 1.4%	2.1
- COc1ccccc1-c1nc(S(=O)(=O)c2ccc(Cl)cc2)c(N2CCCCCC2)o1
 : -0.3%	1.6
- COc1cc(C)c(NC(C)C(=O)c2c(C)[nH]c3ccccc23)cc1OC (stereo not drawn)
 : 0.2%	-0.9
- COc1ccc(CNC(=O)CCCn2nc(C)c3sc4ccccc4c3c2=O)cc1OC
 : 0.8%	0.0
- CCCCOc1ccc(C(C)NC(=O)CN2C(=O)CSc3ccc(S(=O)(=O)N4CCOCC4)cc32)cc1 (stereo not drawn)
 : 0.3%	-0.3
- O=C(Nc1cc2c(cc1C(=O)c1ccc(Br)cc1)OCCO2)c1ccc(Cl)cc1
 : 1.3%	-0.2
- Cc1ccc(C(=O)c2oc3ccccc3c2NC(=O)c2cc(-c3ccccc3)on2)cc1F
 : -1.5%	-1.1
- COc1cccc(C(c2sc3nc(-c4ccco4)nn3c2O)N2CCC(O)CC2)c1 (stereo not drawn)
 : 4.3%	3.1
- CCc1ccc(C2C(C(=O)Nc3ccccc3)=C(C)Nc3nc(SCC(=O)c4ccc(C)cc4)nn32)cc1 (stereo not drawn)
 : 2.6%	0.3

(further entries)
Every second line gives: PINK1 modulator	TRPML1 ag
- CCOc1ccc(NC(=O)c2ccc3c(=O)n4nc(Nc5ccccc5C)sc4nc3c2)cc1
 : -3.4%	0.6
- O=C(Nc1ccc(OC(F)(F)F)cc1)C1CCCN(S(=O)(=O)c2ccc(Br)s2)C1 (stereo not drawn)
 : 15%	2.2
- COc1cc(C(=O)N2CCc3c([nH]c4ccccc34)C2c2ccccc2)cc(OC)c1OC (stereo not drawn)
 : 0.5%	0.5
- O=C(Oc1ccccc1Cl)c1cc(-c2ccc3c(c2)OCCO3)on1
 : 2.8%	0.1
- CCCc1ccc(S(=O)(=O)N2CCC(c3nnnn3-c3ccc(OC)cc3)CC2)cc1
 : 0.9%	0.7
- Cc1ccc(C(=O)Nc2ccc(Br)cc2)cc1S(=O)(=O)N1CCOCC1
 : -0.7%	0.9
- Cc1ccc2nc(NC(=O)CSc3cc(C)[nH]c(=O)n3)sc2c1
 : 1.1%	-0.3
- COc1ccc(C2=NC(C)(C)N(CC(=O)Nc3ccc(F)c(F)c3)C2=O)cc1
 : 0.1%	0.3
- Cc1cc(C)n2nc(CNC(=O)c3cccc(Cl)c3)nc2n1
 : 0.6%	-0.4
- Cc1ccc2c(c1)cc1c(=O)n(Cc3ccc(Cl)cc3)nc(C)n12
 : 0.2%	-1.3
- CC(C)NC(=O)CC(=O)Nc1ccc2nc3n(c(=O)c2c1)CCCCC3
 : 1.5%	0.1
- CCOc1ccc(CNCc2c(C(=O)O)n(Cc3ccccc3C)c3cc(OC)ccc23)cc1OC
 : 2.5%	1.7
- CCN(Cc1ccccc1)C(=O)c1cc2ccc3cccnc3c2[nH]1
 : 0.1%	1.6
- O=C(CCC1N=C2c3ccccc3N=C(SCc3ccccc3F)N2C1=O)NCc1ccc(F)cc1 (stereo not drawn)
 : 0.5%	-0.3
- CCC1Oc2ccc(Cl)cc2N(CC(=O)NCCc2ccc(Cl)cc2)C1=O (stereo not drawn)
 : 4.9%	0.7

Further results follow:
Every second line gives: PINK1 modulator	TRPML1 ag
- O=C(c1cccn1-c1nnc(N2CCCC2)s1)N1CCN(c2ccc(Cl)cc2)CC1
 : -2.1%	3.2
- Cc1nc2ccn(Cc3cccnc3)c(=O)c2cc1C(=O)Nc1ccc(F)cc1F
 : -0.2%	0.4
- O=C(CS(=O)(=O)c1cccc2nsnc12)Nc1cc(F)ccc1F
 : -4.5%	0.6
- O=C(c1cccs1)N(Cc1ccco1)c1ccc(O)cc1
 : 1.0%	-0.7
- O=C(NCc1noc2ccccc12)Nc1ccc(F)cc1F
 : 0.6%	-0.6
- CC(C)(C)OC(=O)N1CCC(c2c(C(=O)NCc3ccccn3)cnn2-c2ccccc2)CC1
 : -0.3%	0.2
- O=C(CC1N=C2c3ccccc3N=C(SCC(=O)Nc3ccc(F)cc3)N2C1=O)NCc1ccc2c(c1)OCO2 (stereo not drawn)
 : 2.9%	1.1
- CCCn1cc(S(=O)(=O)c2ccccc2)c(=O)c2cc(F)c(N3CCCCC3)cc21
 : 0.1%	1.4
- Cc1ccc(Nc2c(-c3ccccn3)nc3ccc(Br)cn23)cc1
 : -0.9%	-1.2
- CCCCN1C(=O)c2[nH]nc(-c3ccccc3O)c2C1c1cccc(OCc2ccccc2)c1 (stereo not drawn)
 : ?	0.0
- Cc1cccc(NC(=O)N2CCC(CN3CCc4ccccc4C3)CC2)c1C
 : -0.2%	1.7
- Cn1c(=O)oc2cc(S(=O)(=O)NC(Cc3ccccc3)C(=O)Nc3ccc(F)cc3)ccc21 (stereo not drawn)
 : 6.9%	0.0
- CCC(=O)N1CCc2cc(Br)cc(S(=O)(=O)N3CCCC(C(=O)NCc4ccc(F)cc4)C3)c21 (stereo not drawn)
 : 0.5%	-0.8
- CCOc1ccc(-c2nc(Cn3c(=O)cc(C)c4c(C)nn(-c5ccc(C)cc5)c43)c(C)o2)cc1
 : -0.8%	0.1
- CCCS(=O)(=O)c1c(S(=O)(=O)CCC)c2cc(C(C)(C)C)ccn2c1C(=O)c1ccc(OC)c(OC)c1
 : -0.7%	-0.1
- Cc1c(C(=O)OC2CCCCCC2)[nH]c2c1C(=O)CC(c1ccccc1Cl)C2 (stereo not drawn)
 : 15%	0.8
- CCc1ccccc1NC(=O)c1ccc(=O)n(Cc2ccc(F)cc2)c1
 : ?	1.5
- Cc1ccc2c(c1)c(=O)c1ccccc1n2CCCC(=O)Nc1cc(Cl)ccc1C
 : 9.7%	0.0
